VCAM-1 imaging = inhibitors of TNFa-induced VCAM-1 surface display, imaging, high-content imaging, pooled HUVEC, TNFa stimulus (AID 456) | inhibition, % at 5 µM; hits with a dose series show IC50 in µM | 10,000 compounds, 0.2% hits | HUVEC TNFa-induced VCAM-1 surface expression, immunofluorescence imaging; numbers were filed only for top-ranked candidate wells;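 active = top tenth filtered wells with inhibition above zero that passed visual or statistical confirmation; inactive = the rest, including hits rejected on review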;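 note: 0% = stimulated vehicle wells and 100% = unstimulated cells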
FPRL1 binder = human FPRL1 ligands by binding competition, primary screen, cell-based, FPR counter-screen, flow cytometry; N-formyl peptide receptor 2 (Homo sapiens), P25090; FPRL1-expressing cells, fluorescent ligand binding inhibition; inhibition, %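 (tested at 6.7 µM)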; 24,000 compounds, 0.3% hits;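 note: 0% = buffer alone and 100% = receptor blocker peptide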
Target sequence (P25090 whole entry, looked up): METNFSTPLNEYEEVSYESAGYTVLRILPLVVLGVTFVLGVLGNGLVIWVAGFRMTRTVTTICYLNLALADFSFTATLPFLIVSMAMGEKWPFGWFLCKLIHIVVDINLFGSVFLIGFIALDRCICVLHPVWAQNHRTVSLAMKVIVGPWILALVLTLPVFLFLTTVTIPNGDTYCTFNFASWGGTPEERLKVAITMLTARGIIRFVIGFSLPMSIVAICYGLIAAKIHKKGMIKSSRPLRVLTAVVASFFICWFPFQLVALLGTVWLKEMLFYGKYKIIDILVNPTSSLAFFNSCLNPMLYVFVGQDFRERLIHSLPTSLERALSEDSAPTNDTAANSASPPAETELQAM
VCAM-1 up imaging = enhancers of VCAM-1 display on endothelial cells, imaging, high-content imaging, pooled HUVEC, TNFa stimulus (AID 457). 10,000 compounds, 0.2% hits. Pooled HUVEC, TNFa-induced VCAM-1 immunofluorescence imaging; hits of this screen are not shown here. calls only;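 active = a top-ranked rise in VCAM-1 staining upheld on image or statistical review; inactive = the rest, including candidates rejected on review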;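 note: compounds tested at 5 µM in the well; cells exposed to compound for 24 hours before fixing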
VCAM-1 inhibition = inhibitors of TNFa-induced VCAM-1 surface display, cell-based, plate reader, pooled HUVEC, TNFa stimulus (AID 454). HUVEC TNFa-induced VCAM-1 surface immunofluorescence, plate reader; numbers were filed only for top-ranked candidate wells. 10,000 compounds, 0.2% hits. inhibition, % at 5 µM;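 active = compound among top-ranked inhibitors of TNF-induced VCAM-1 adhesion protein staining, with the hit upheld by image or statistical review; inactive = the rest, including hits rejected on review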;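 note: 0% = TNFa with vehicle and 100% = cells without TNFa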
FPR ligand = human FPR ligands by binding competition, primary screen, cell-based, FPRL1 counter-screen, flow cytometry | FPR-expressing cells, fluorescent ligand binding | AID 440, 2006 | 24,000 compounds, 0.74% hits | inhibition, %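 (tested at 6.7 µM)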;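 note: 0% = buffer wells and 100% = receptor blocker peptide wells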
Target sequence (P21462 whole entry, looked up): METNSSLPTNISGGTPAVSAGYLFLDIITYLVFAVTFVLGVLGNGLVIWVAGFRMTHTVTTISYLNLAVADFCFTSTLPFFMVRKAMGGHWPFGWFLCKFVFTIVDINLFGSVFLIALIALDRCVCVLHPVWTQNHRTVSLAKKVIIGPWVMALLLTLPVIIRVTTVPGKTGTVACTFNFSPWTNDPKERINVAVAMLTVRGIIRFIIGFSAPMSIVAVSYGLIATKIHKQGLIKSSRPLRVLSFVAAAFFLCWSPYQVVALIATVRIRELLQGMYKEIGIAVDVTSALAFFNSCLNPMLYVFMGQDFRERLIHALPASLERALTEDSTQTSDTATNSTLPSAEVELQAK
Starred values were filed as active, the others as inactive.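 Rule for the calls, unless noted: active = mean above 30%; inconclusive = self-fluorescent; inactive = the rest.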 A portion of the library, so the mix of outcomes need not match the whole.

Results for CN1CCN(/C=N/c2sc3c(c2C#N)CCCCC3)CC1 ?
VCAM-1 imaging: inactive; FPRL1 binder: -4; VCAM-1 up imaging: inactive; VCAM-1 inhibition: inactive; FPR ligand: -2

How did Cn1c(=O)c2c(-c3ccccc3)n(-n3cnnc3)cc2n(C)c1=O do in these assays?
FPRL1 binder: 12; FPR ligand: 10

How did COc1ccc(N2CCN(CCCNC(=O)C3CCCN(S(=O)(=O)c4cnc[nH]4)C3)CC2)cc1 (centres undefined) do in these assays?
VCAM-1 imaging: inactive; FPRL1 binder: -1; VCAM-1 up imaging: inactive; VCAM-1 inhibition: inactive; FPR ligand: -1

What do the screens show for `Cc1nc2ccccc2c2oc(C(=O)NCCN3CCN(C)CC3)cc12`?
FPRL1 binder: -6; FPR ligand: -8

How did CCOC(=O)N1CCN(C(=O)CS(=O)(=O)Cc2nc(-c3ccccc3C)oc2C)CC1 do in these assays?
FPRL1 binder: -1; FPR ligand: 7

Results for O=C(NC1CCCCC1)C(c1ccc(Cl)cc1)N(C(=O)c1cnccn1)c1ccc2c(c1)OCO2 (centres undefined) ?
VCAM-1 imaging: inactive; FPRL1 binder: -5; VCAM-1 up imaging: inactive; VCAM-1 inhibition: inactive; FPR ligand: -3

How did COCCNC(=O)Cn1cc2c(n1)CCCCC2 do in these assays?
VCAM-1 imaging: inactive; FPRL1 binder: 1; VCAM-1 up imaging: inactive; VCAM-1 inhibition: inactive; FPR ligand: -6

Results for CC1=C/C(=C/N(C)c2ccccc2)C(=O)S1 ?
VCAM-1 imaging: inactive; FPRL1 binder: 0; VCAM-1 up imaging: inactive; VCAM-1 inhibition: inactive; FPR ligand: -3

What do the screens show for `COc1ccc(S(=O)(=O)Cc2ccc(C(=O)N3CCN(c4cccc(C)c4)C(C)C3)o2)cc1` (centres undefined)?
FPRL1 binder: -3; FPR ligand: 8

What do the screens show for `CCOC(=O)C1CCCN(C(=O)c2cn(CC(C)C)c(=O)c3cc(OC)c(OC)cc23)C1` (centres undefined)?
FPRL1 binder: 2; FPR ligand: -1

What do the screens show for `CCCN1CCN(C(=O)Cn2cccc2C(=O)c2ccccc2)CC1`?
VCAM-1 imaging: inactive; FPRL1 binder: 1; VCAM-1 up imaging: inactive; VCAM-1 inhibition: inactive; FPR ligand: -14

How did COc1ccc(OCC(=O)Nc2cccc3ncccc23)cc1 do in these assays?
VCAM-1 imaging: inactive; FPRL1 binder: -2; VCAM-1 up imaging: inactive; VCAM-1 inhibition: inactive; FPR ligand: -6

Results for O=C(C1CC1)N1CCN=C1SCc1ccc(F)cc1 ?
FPRL1 binder: 1; FPR ligand: -2

How did Cc1nnc(N2C(=O)c3oc4ccccc4c(=O)c3C2c2ccco2)s1 (centres undefined) do in these assays?
VCAM-1 imaging: inactive; FPRL1 binder: -3; VCAM-1 up imaging: inactive; VCAM-1 inhibition: inactive; FPR ligand: 0

How did Cn1c(SCC(N)=O)nnc1C1CCN(S(=O)(=O)c2ccccc2C(F)(F)F)CC1 do in these assays?
VCAM-1 imaging: inactive; FPRL1 binder: -1; VCAM-1 up imaging: inactive; VCAM-1 inhibition: inactive; FPR ligand: 4

Pulled by structure from the list above, 4 records:
What do the screens show for `CCOC(=O)C1CCCN(C(=O)c2cn(CC(C)C)c(=O)c3cc(OC)c(OC)cc23)C1` (centres undefined)?
FPRL1 binder: 2; FPR ligand: -1

How did COc1ccc(N2CCN(CCCNC(=O)C3CCCN(S(=O)(=O)c4cnc[nH]4)C3)CC2)cc1 (centres undefined) do in these assays?
VCAM-1 imaging: inactive; FPRL1 binder: -1; VCAM-1 up imaging: inactive; VCAM-1 inhibition: inactive; FPR ligand: -1

How did CCOC(=O)N1CCN(C(=O)CS(=O)(=O)Cc2nc(-c3ccccc3C)oc2C)CC1 do in these assays?
FPRL1 binder: -1; FPR ligand: 7

Results for O=C(C1CC1)N1CCN=C1SCc1ccc(F)cc1 ?
FPRL1 binder: 1; FPR ligand: -2

(more compounds)
Results for CCOC(=O)N1CCC(NC(=O)CCc2nc(-c3ccccc3F)no2)CC1 ?
FPRL1 binder: 6; FPR ligand: -3

How did O=C(CCNS(=O)(=O)c1ccc(Cl)cc1)NCc1cccnc1 do in these assays?
FPRL1 binder: -6; FPR ligand: -13

How did Cc1ccc(-c2cn3cccnc3n2)cc1NC(=O)c1c(-c2ccccc2Cl)noc1C do in these assays?
FPRL1 binder: -2; FPR ligand: 3

What do the screens show for `CCOC(=O)CN(C(=O)c1ccccc1)c1ccccc1C`?
VCAM-1 imaging: inactive; FPRL1 binder: 5; VCAM-1 up imaging: inactive; VCAM-1 inhibition: inactive; FPR ligand: 3

What do the screens show for `CSc1nnc(Cc2cc(=O)[nH]c(=O)[nH]2)n1-c1cc(C)ccc1C`?
FPRL1 binder: 0; FPR ligand: 1

What do the screens show for `CCc1nn(C(C)C(=O)NCCc2ccc(OC)c(OC)c2)c(=O)c2cc3occc3n12` (centres undefined)?
FPRL1 binder: -4; FPR ligand: -6

Results for CCCC1c2ccc(C)n2CCN1C(=O)Nc1ccc(F)cc1 (centres undefined) ?
FPRL1 binder: -11; FPR ligand: -6

How did O=C(CCC1N=C2c3ccccc3N=C(SCc3ccc(Cl)cc3)N2C1=O)NCc1ccco1 (centres undefined) do in these assays?
FPRL1 binder: -4; FPR ligand: 5

How did N#Cc1ccccc1Cn1c(=O)n(CCCC(=O)NCc2ccc3c(c2)OCO3)c(=O)c2ccccc21 do in these assays?
FPRL1 binder: 3; FPR ligand: -3

Results for Cc1cc(C(=O)COc2cccc3cccnc23)c(C)n1C ?
VCAM-1 imaging: inactive; FPRL1 binder: 3; VCAM-1 up imaging: inactive; VCAM-1 inhibition: inactive; FPR ligand: 0

What do the screens show for `COc1cc(S(=O)(=O)N2CCOCC2)ccc1NC(=O)COC(=O)c1ccccn1`?
VCAM-1 imaging: inactive; FPRL1 binder: 3; VCAM-1 up imaging: inactive; VCAM-1 inhibition: inactive; FPR ligand: 0

What do the screens show for `CCOC(=O)N1CCN(c2cc(=O)n(-c3ccccc3Cl)c(=O)[nH]2)CC1`?
VCAM-1 imaging: inactive; FPRL1 binder: 5; VCAM-1 up imaging: inactive; VCAM-1 inhibition: inactive; FPR ligand: -6

How did O=C(Cn1cnc2c(cnn2-c2ccc(Cl)cc2)c1=O)NCC1CCCO1 (centres undefined) do in these assays?
FPRL1 binder: -4; FPR ligand: 1

How did Cc1ccc(CS(=O)(=O)Cc2ccc(C(=O)NCCCN3CCOCC3)o2)cc1 do in these assays?
FPRL1 binder: 0; FPR ligand: -8

How did CCn1cc(C(=O)NCCCOC(C)C)c2cc(OC)c(OC)cc2c1=O do in these assays?
FPRL1 binder: 5; FPR ligand: -2

Results for COc1ccc(N2CCN(C(=O)c3cccc(N4C(=O)C5CC=CC(C)C5C4=O)c3)CC2)cc1 (centres undefined) ?
FPRL1 binder: 3; FPR ligand: 0

Results for COc1cccc(C2CC(c3cccc(Br)c3)n3ncnc3N2)c1 (centres undefined) ?
FPRL1 binder: 6; FPR ligand: 6

What do the screens show for `Cn1c(Cn2c(=O)sc3ccccc32)nnc1SCC(=O)Nc1ccc(Cl)cc1`?
FPRL1 binder: -1; FPR ligand: 8

Results for COc1ccc(-n2c(SCC(=O)N3CCCCC3C)nnc2-c2cccnc2)cc1 (centres undefined) ?
VCAM-1 imaging: inactive; FPRL1 binder: -5; VCAM-1 up imaging: inactive; VCAM-1 inhibition: inactive; FPR ligand: -8

How did Clc1ccc(C2CC(c3cccs3)n3ncnc3N2)c(Cl)c1 (centres undefined) do in these assays?
FPRL1 binder: 6; FPR ligand: 2

Results for Cc1oc2cc(O)cc(C)c2c(=O)c1-c1cnn(-c2ccccc2)c1 ?
FPRL1 binder: 3; FPR ligand: 1

Results for Cc1nc2c(c(=O)n1CC1CCCO1)c1nc3ccccc3nc1n2CC(C)C (centres undefined) ?
VCAM-1 imaging: inactive; FPRL1 binder: 6; VCAM-1 up imaging: inactive; VCAM-1 inhibition: inactive; FPR ligand: 14

Results for O=C(C1CC1)N1CCc2cc(S(=O)(=O)N3CCCc4ccccc43)ccc21 ?
FPRL1 binder: -4; FPR ligand: -6

What do the screens show for `O=C(C1CCN(c2nnc(-n3cccc3)s2)CC1)N1CCc2ccccc2C1`?
VCAM-1 imaging: inactive; FPRL1 binder: 0; VCAM-1 up imaging: inactive; VCAM-1 inhibition: inactive; FPR ligand: 1

How did COc1cc(C2CC(=O)NC3=C2C(=O)CC(C)(C)C3)cc(OC)c1O (centres undefined) do in these assays?
FPRL1 binder: 5; FPR ligand: -6

How did COc1cc(SC)ccc1C(=O)Nc1ccccc1C#N do in these assays?
VCAM-1 imaging: inactive; FPRL1 binder: 0; VCAM-1 up imaging: inactive; VCAM-1 inhibition: inactive; FPR ligand: -2

What do the screens show for `Cc1ccc2nc3ccc(N4CCCC4)nn3c(=O)c2c1`?
FPRL1 binder: 1; FPR ligand: -5

Results for Cc1c(C(=O)OCCOC(C)C)[nH]c2c1C(=O)CC(c1ccco1)C2 (centres undefined) ?
VCAM-1 imaging: inactive; FPRL1 binder: -2; VCAM-1 up imaging: inactive; VCAM-1 inhibition: inactive; FPR ligand: 2

How did CCOc1ccc(NC(=O)CN2CCN(CC(=O)c3ccc(OC)c(OC)c3)CC2)cc1 do in these assays?
FPRL1 binder: 0; FPR ligand: 4

Results for O=C(CSc1nnc(-c2ccccc2)o1)Nc1ccccc1F ?
FPRL1 binder: 2; FPR ligand: 0

Results for COc1cc(C2C(C(=O)c3sc(C)nc3C)=C(O)C(=O)N2CCN(C)C)cc(OC)c1OC (centres undefined) ?
FPRL1 binder: 8; FPR ligand: 3

Results for COc1ccc(CCNC(=O)C2CCN(S(=O)(=O)N3CCCCCC3)CC2)cc1OC ?
FPRL1 binder: -1; FPR ligand: 3

How did Cc1noc(C(=O)N2CCN(c3ccc(F)cc3)CC2)c1Cl do in these assays?
FPRL1 binder: -5; FPR ligand: 1

How did CC(C(=O)Nc1cccnc1)N1C(=O)C2C3C=CC(C3)C2C1=O (centres undefined) do in these assays?
FPRL1 binder: -8; FPR ligand: -3

What do the screens show for `CC1(C(=O)NC2CCCCCCC2)CCC(=O)N1Cc1cccnc1` (centres undefined)?
FPRL1 binder: -4; FPR ligand: 5

What do the screens show for `Cc1ccc(CNC(=O)C2CCCN(S(C)(=O)=O)C2)cc1` (centres undefined)?
FPRL1 binder: 6; FPR ligand: 4

Results for CC(C)OCCCn1c(=S)[nH]c2ccc(N3CCOCC3)cc2c1=O ?
FPRL1 binder: 0; FPR ligand: 2

How did COC(=O)c1ccc2c(=O)n(CCCCCC(=O)N3CCN(c4ccccc4)CC3)c(=O)[nH]c2c1 do in these assays?
FPRL1 binder: 1; FPR ligand: 3

How did COc1ccc(CCn2c(-c3ccco3)nc3nc4ccccc4nc32)cc1 do in these assays?
VCAM-1 imaging: inactive; FPRL1 binder: -6; VCAM-1 up imaging: inactive; VCAM-1 inhibition: inactive; FPR ligand: 5

What do the screens show for `CCOC(=O)C1CCN(C(=O)CN(Cc2ccccc2)S(C)(=O)=O)CC1`?
VCAM-1 imaging: inactive; FPRL1 binder: -3; VCAM-1 up imaging: inactive; VCAM-1 inhibition: inactive; FPR ligand: 0

Results for CC1(C)CC(CCNC(=O)c2ccco2)CC(C)(C)N1 ?
VCAM-1 imaging: inactive; FPRL1 binder: 4; VCAM-1 up imaging: inactive; VCAM-1 inhibition: inactive; FPR ligand: 6

What do the screens show for `COc1cccc(C(=O)CSc2nnc(COc3cccc4cccnc34)o2)c1`?
VCAM-1 imaging: inactive; FPRL1 binder: 1; VCAM-1 up imaging: inactive; VCAM-1 inhibition: inactive; FPR ligand: -10

How did CC(NC(=O)CN1C(=O)COc2ccccc21)c1ccccc1 (centres undefined) do in these assays?
FPRL1 binder: 6; FPR ligand: 4

What do the screens show for `COc1cccc(-n2nnc3c(=O)n(Cc4ccc(Cl)cc4)cnc32)c1`?
FPRL1 binder: 0; FPR ligand: 2

Results for CCOC(=O)N1CCN(c2c(N3CCc4ccccc4C3)c(=O)c2=O)CC1 ?
VCAM-1 imaging: inactive; FPRL1 binder: 5; VCAM-1 up imaging: inactive; VCAM-1 inhibition: inactive; FPR ligand: 3

Results for Cc1ccc(-n2nc3c(c2NC(=O)c2ccc(S(=O)(=O)N4CCOCC4)cc2)CSC3)c(C)c1 ?
FPRL1 binder: -8; FPR ligand: -2

Results for CC1CCN(CCCNC(=O)COc2cc(=O)n(C)c3ccccc23)CC1 ?
FPRL1 binder: 0; FPR ligand: -2

What do the screens show for `Cc1oc(-c2cccc(Cl)c2)nc1CN1CCC(C(=O)N2CCN(c3ccccc3F)CC2)CC1`?
VCAM-1 imaging: 8.7µM*; FPRL1 binder: 0; VCAM-1 up imaging: inactive; VCAM-1 inhibition: 79; FPR ligand: 0

Screens deposited in PubChem by several laboratories.
